HNF4A DNA FP: change in binding of human HNF4 alpha to DNA | HNF4a-FITC DNA binding, fluorescence polarization, 1 h | activity change, % at 10 µM | 360,000 compounds, 0.3% hits; in the data active means activity change above about 30%, passing the limit was not always enough;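 further: controls were the assay level and a saturating level of protein; the project sought stronger binding though the title names inhibitors; some compounds called inactive have numbers as strong as hits; positive values seem to mean higher polarization but the record does not say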
Target sequence (P41235 whole entry, looked up): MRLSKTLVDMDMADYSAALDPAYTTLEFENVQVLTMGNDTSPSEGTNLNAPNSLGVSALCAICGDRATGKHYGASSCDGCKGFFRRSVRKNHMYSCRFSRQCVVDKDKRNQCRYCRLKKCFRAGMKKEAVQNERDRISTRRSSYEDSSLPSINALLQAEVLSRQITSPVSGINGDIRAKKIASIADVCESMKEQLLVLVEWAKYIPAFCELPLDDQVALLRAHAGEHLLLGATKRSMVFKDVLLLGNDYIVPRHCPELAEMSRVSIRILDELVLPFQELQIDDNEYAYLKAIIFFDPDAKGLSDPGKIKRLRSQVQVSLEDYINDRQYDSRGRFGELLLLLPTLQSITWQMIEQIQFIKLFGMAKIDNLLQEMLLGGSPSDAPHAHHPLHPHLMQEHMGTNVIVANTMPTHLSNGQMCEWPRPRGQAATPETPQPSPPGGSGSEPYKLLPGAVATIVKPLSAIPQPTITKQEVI
FGF22 binding: FGF22 (human) thermal shift binding; recombinant FGF22 thermal shift, SYPRO orange fluorescence; percent of sucrose octasulfate shift, DMSO zero; calls only at 9.99 µM; 340,000 compounds, 1.5% hits;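 active means melting point raised past a set limit in the mean and every replicate; three in four hits are not shown here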
Target sequence (Q9HCT0 whole entry, looked up): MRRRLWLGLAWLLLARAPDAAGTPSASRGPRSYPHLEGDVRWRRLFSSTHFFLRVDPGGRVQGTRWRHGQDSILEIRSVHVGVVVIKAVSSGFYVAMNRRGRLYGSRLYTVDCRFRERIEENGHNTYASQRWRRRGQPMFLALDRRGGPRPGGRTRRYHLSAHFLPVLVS
An asterisk follows results filed as active; i = inactive; + = active, no number. Some of the compounds tested. The share of hits here may be higher or lower than overall.

Sequence of screens: FGF22 binding | HNF4A DNA FP
CCc1nc2ccc(C(=O)Nc3cccc(OCC(=O)N(C)C)c3)cn2c1N(C)Cc1ccc(OC)cc1
 : i | -1.1
COC(=O)C1(C(=O)OC)C[C@H](c2cccs2)N(Cc2ccccc2OC)[C@@H]1c1ccc(F)cc1
 : i | -3.1
O=C(Nc1ccc(F)c(Cl)c1)c1cc(C2CCCN(S(=O)(=O)c3ccccc3)C2)on1 (stereo unspecified)
 : i | 2.0
COC(=O)c1ccc2nc(-c3ccc(Cl)cc3)c(Cc3cccc(F)c3)n2c1
 : i | 5.6
CC1(C(=O)Nc2ccccc2)CCN1C(=O)Cc1ccc(-c2ccccc2)cc1 (stereo unspecified)
 : i | -1.5
COc1cccc(CNC(=O)[C@H](C)NC(=O)N2CC(=O)Nc3ccccc32)c1
 : i | 0.9
CCC(C(=O)NCc1ccccc1)n1c(-c2ccc3c(c2)CCO3)nc2ccccc21 (stereo unspecified)
 : i | 3.6
CCCCCNC(=O)c1nc(-c2c(F)cccc2F)oc1-c1ccccc1
 : i | -2.8
CCCCCNC(=O)C(c1ccc(OC)cc1)n1c(=O)c(-c2cc3ccccc3[nH]2)nc2ccccc21 (stereo unspecified)
 : i | -1.3
O=C(Nc1nnc([C@@H]2C[C@H](O)[C@@H](CO)O2)s1)c1ccccc1Cl
 : i | 4.2
CCCc1nc2ccc(Br)cn2c1Cc1cccc(Cl)c1
 : i | 7.7
CC1(C(=O)NS(=O)(=O)Cc2cccc(Cl)c2)CCN1C(=O)CCc1ccccc1 (stereo unspecified)
 : i | -1.7
CC1=C(C(=O)N2CCOCC2)CC(CC(=O)NCC2CCCCC2)C(=O)N1CCCN1CCCC1=O (stereo unspecified)
 : i | 4.8
CC1(C(=O)NS(=O)(=O)c2cccc(Cl)c2)CCN1C(=O)C/C=C/c1ccccc1 (stereo unspecified)
 : i | 3.4
COc1ccc(C(=O)N(C)C(C)c2nccs2)cc1OC1CCN(C(C)=O)CC1 (stereo unspecified)
 : i | 2.4
CCOC(=O)[C@]12CCC=C1N(Cc1ccccc1)C(=O)[C@H](CC(=O)N1CCCCC1)C2
 : i | -8.0
CC(=O)Oc1ccc(Cn2c(C)c(C(=O)NCc3ccccc3C(F)(F)F)sc2=O)cc1
 : i | 2.0
CCN(CC)c1ccc(C(=O)NNC(=O)Cn2c(=O)cnc3ccccc32)cc1
 : i | -0.7
O=C(Nc1ccc2ccccc2c1)C(c1ccccc1F)n1c(=O)c(-c2cc3ccccc3[nH]2)nc2ccccc21 (stereo unspecified)
 : i | 3.5
CCCCCNC(=O)c1[nH]c(C(F)(F)F)nc1-c1ccccc1
 : i | -2.5
Cn1nc(C(=O)OCC(=O)NCc2ccc(Cl)cc2Cl)c2ccccc2c1=O
 : i | -0.2
Cc1ccc(Cl)cc1-c1cc(C(=O)NCc2cc(C(F)(F)F)cc(C(F)(F)F)c2)[nH]n1
 : i | -1.2
O[C@H]1C[C@H](c2ccccc2)N(CC2CCCCC2)C[C@@H]1n1cc(C2CC2)nn1
 : i | 1.8
CCOC(=O)Cc1c(-c2cccc(Cl)c2)nc2c3ccccc3ccn12
 : i | 1.6
O=C1Cn2nnc(-c3ccccc3)c2C2c3ccccc3CCN12 (stereo unspecified)
 : i | -3.5
CN1CCn2cnc(C(=O)NCc3ccc(CNC(=O)OC(C)(C)C)cc3)c2C1=O
 : i | 3.5
CCOC(=O)n1c2ccccc2c(=O)n1CCO
 : i | 6.2
CC(C)N(C)c1ncnc2c1ncn2[C@H]1CN(Cc2ccc(Cl)cc2)C[C@@H](CO)O1
 : i | 2.7
Cc1nc2ccccn2c(=O)c1NC(=O)c1ccc2c(c1)OCO2
 : i | -1.9
Cc1ccccc1S(=O)(=O)N1CCN(c2ccc3c(c2)C2CC3CCN2C(=O)OCc2ccccc2)CC1 (stereo unspecified)
 : i | 1.1
C/C(=N\NC(=O)c1nnn(-c2nonc2N)c1CN1CCC(C)CC1)c1ccc(Br)cc1
 : i | -1.2
O=C(Nc1cc(C(F)(F)F)ccc1F)C1Cc2c(-c3ccccc3Oc3ccccc3)ccnc2O1 (stereo unspecified)
 : i | -0.5
CC(C)c1cc(Cn2c3ccccc3c(=O)n2C(C)Cn2cc(CCCC#N)nn2)on1 (stereo unspecified)
 : i | 8.6
O=c1c(=O)n(CCO)n(CCO)c(=O)n1CCO
 : i | -0.2
C[C@H]1COc2cc(N3CCSCC3)ccc2S(=O)(=O)N1
 : i | 1.6
O=C1CCC(C(=O)OCC(=O)Nc2ccc(OC(F)F)cc2)=NN1
 : i | 2.4
CC(=O)Nc1cccc(-c2csc(C(C)(O)c3ccccc3)n2)c1 (stereo unspecified)
 : i | 4.8
Cc1ccc(S(=O)(=O)N2C[C@@H](C)[C@]3(C2)[C@H](O)[C@H](OC(=O)NCc2ccco2)C[C@H]2C(=O)N(c4ccccc4)C(=O)[C@H]23)cc1
 : i | 0.3
CCCC(=O)N1CCCC(c2cc(C(=O)NCc3cccnc3)no2)C1 (stereo unspecified)
 : i | 8.6
Cc1n[nH]c(=O)n(N=Cc2c[nH]c3ccccc23)c1=O
 : i | -2.1
O=CNc1cc(-c2ccccc2)cn2c(-c3ccc(F)c(Cl)c3)cnc12
 : i | 8.7
CCc1ccc(NC(=O)c2ccc3c(c2)CCN3S(C)(=O)=O)cc1
 : i | 4.7
COc1ccccc1Cn1c(C)c(C(=O)NCCC#N)sc1=O
 : i | 2.0
Nc1ncnc2c1ncn2[C@@H]1O[C@H](C(=O)NS(=O)(=O)c2cccs2)[C@@H](O)[C@H]1O
 : i | 3.0
CCCC(=O)N1CCCC1(C)C(=O)Nc1ccc(C)c(C)c1 (stereo unspecified)
 : i | -0.7
COc1cccc(-c2cnc3c(NC(C)=O)cc(-c4ccc(C(=O)N5CCOCC5)cc4)cn23)c1
 : i | 8.7
Cc1cccc(CN(C)C[C@@H]2OCc3cnnn3CCCC(=O)N([C@@H](C)CO)C[C@H]2C)c1
 : i | 6.8
Cc1c(C(=O)NCc2ccc(F)cc2)sc(=O)n1Cc1ccccc1F
 : i | 1.6
COc1ccc(-c2cncc3nccn23)cc1OC
 : i | 0.6
COc1ccc(C2=Nc3ccccc3N(C(=O)c3cc(Cl)cc(Cl)c3)C2C(=O)NCc2ccccc2)cc1 (stereo unspecified)
 : i | -3.8
CCC(=O)N1CCC(C)(C(=O)Nc2ccc3c(c2)OCO3)C1 (stereo unspecified)
 : i | -1.5
COc1cc2c(cc1OC)CN(C(=O)c1cc(COc3ccccc3SC)on1)CC2
 : i | 4.2
O=C(NCc1ccccc1)C(CCc1ccccc1)n1c(=O)c(-c2cc3ccccc3[nH]2)nc2ccccc21 (stereo unspecified)
 : i | 2.2
COc1cccc(S(=O)(=O)N(C)C[C@@H]2OCc3cnnn3CCCC(=O)N([C@@H](C)CO)C[C@@H]2C)c1
 : i | -2.3
O=C(O)Cn1nncc1-c1ccc(C(F)(F)F)cc1
 : i | 4.4
COc1ccc(Cc2c(-c3cccc(Br)c3)nc3cc(C)c(Br)c(C)n23)c(C)c1
 : i | 3.5
COc1ccc(Cl)cc1-c1cc(C(=O)NCc2cccs2)[nH]n1
 : i | 0.4
CCCC(=O)N1CCC1(C)C(=O)Nc1cc(OC)c(OC)c(OC)c1 (stereo unspecified)
 : i | 5.0
CCOC(=O)N1CCN(C(C(=O)NC2CCCC2)C(C)C)CC1 (stereo unspecified)
 : i | -6.0
COc1cccc(C(O)c2nc(-c3cnn(C)c3)cs2)c1 (stereo unspecified)
 : i | 3.6

New compounds follow
Sequence of screens: FGF22 binding | HNF4A DNA FP
Cc1ccc(S(=O)(=O)N2CC3C(=O)C[C@@H](c4ccccc4)N(S(=O)(=O)c4cccc(Cl)c4)C3CC2c2ccccc2)cc1 (stereo partly specified)
 : i | 4.0
COC(=O)c1cnc(Nc2nc(CN)cs2)nc1C(F)(F)F
 : i | 1.4
CSc1ccc(/C=N/NC(=O)c2ccc3nc[nH]c3c2)cc1
 : + | 3.9
O=[N+]([O-])c1cccc(/C=C2\CCc3cnn(C4CCS(=O)(=O)C4)c32)c1 (stereo unspecified)
 : i | -0.3
CC1(C(=O)NCC2CC2)CCN1C(=O)C1(c2ccccc2)CC1 (stereo unspecified)
 : i | 0.2
CCC(CC)CC1CN2CCc3cc(OC)c(OC)cc3C2CC1(O)CC (stereo unspecified)
 : i | -1.8
CCC(C)CN1C(=O)CN(S(C)(=O)=O)CC1(C)C(=O)NCc1ccccc1 (stereo unspecified)
 : i | -3.1
CCCCn1nnnc1C1(C)CCC(=O)N1Cc1ccc(C)cc1 (stereo unspecified)
 : i | 1.7
O=c1ccn([C@@H]2O[C@H](CNCc3c(OCc4ccccc4F)ccc4ccccc34)[C@@H](O)[C@H]2O)c(=O)[nH]1
 : i | -3.8
COc1ccc(-c2cc(C(=O)NCc3ccc(C(F)(F)F)cc3)[nH]n2)c(C)c1
 : i | 1.3
CCOc1cc(CN2CCC(N3CCC(C(=O)NC4CC4)CC3)CC2)ccc1O
 : i | -1.8
COC(=O)C[C@@H]1CC[C@H](NC(=O)c2ccc3c(c2)OCO3)[C@@H](CO)O1
 : i | 3.3
COc1ccc(S(=O)(=O)N2CCN(CC(=O)NC(C)c3cccs3)CC2)cc1 (stereo unspecified)
 : i | 2.1
Cc1cccc(-c2noc(-c3csc([C@@H]4C[C@H](O)[C@@H](CO)O4)n3)n2)c1
 : i | 2.4
CC(C)c1ccc(C(=O)Nc2ccc(S(=O)(=O)NC3=NCCCCC3)cc2)cc1
 : i | -0.2

Arranged by value in HNF4A DNA FP (low to high): some entries from above.
Sequence of screens: FGF22 binding | HNF4A DNA FP
O=C(Nc1ccc(F)c(Cl)c1)c1cc(C2CCCN(S(=O)(=O)c3ccccc3)C2)on1 (stereo unspecified)
 : i | 2.0
CCCC(=O)N1CCC1(C)C(=O)Nc1cc(OC)c(OC)c(OC)c1 (stereo unspecified)
 : i | 5.0
Cc1cccc(CN(C)C[C@@H]2OCc3cnnn3CCCC(=O)N([C@@H](C)CO)C[C@H]2C)c1
 : i | 6.8

Carrying on.
Sequence of screens: FGF22 binding | HNF4A DNA FP
O=C1NC[C@H](CCCCN2CCN(CCC3CCCCC3)C(=O)C2=O)N(CCc2ccc(O)cc2)C1=O
 : i | -1.0
CN1OC[C@@H]2CN(C(=O)c3ccco3)[C@H](c3ccc(-c4ccc(C#N)cc4)cc3)C[C@@H]21
 : i | 0.5
S=c1[nH]nc(NC2CCCCC2)s1
 : i | -1.8
O=c1c(-c2ccco2)nc2ccccc2n1C(c1ccccc1)c1nc2ccccc2[nH]1 (stereo unspecified)
 : i | 18
CCCCCCn1c(=O)n2n(c1=O)[C@@H]1CN(S(=O)(=O)c3ccc(C)cc3)C[C@]1(O)[C@@H](OC(=O)NC1CC1)C2
 : i | -3.1
Cc1ccc(C(O)c2ncc(-c3ccc(F)cc3)[nH]2)cc1F (stereo unspecified)
 : i | -4.0
COc1cc(C)c2sc3ccccc3c(=O)c2c1NCCN(C)C
 : i | 13
CCOC(=O)C1=CCC(c2ccccc2)N(S(=O)(=O)c2ccc(C)cc2)[C@H]1CC (stereo partly specified)
 : i | 8.1
CNC[C@H]1OCc2cnnn2CCCC(=O)N([C@H](C)CO)C[C@@H]1C
 : i | 2.1
COc1ccc(C(=O)NC(C(=O)N2CCN(C/C=C/c3ccccc3)CC2)C(C)C)cc1 (stereo unspecified)
 : i | -1.6
CCOc1ccc2ccccc2c1CNCCCN1CCOCC1
 : i | -1.2
COc1ccc(CCN2C(=O)COc3ccccc3C2C(=O)Nc2ccc3c(c2)OCCO3)cc1OC (stereo unspecified)
 : i | 0.6
CC(C)(C)c1csc(NC(=O)CCS(=O)(=O)c2ccc(F)cc2)n1
 : i | 2.0
OC(c1ccccc1)(c1nc(/C=C/c2ccc(C(F)(F)F)cc2)cs1)C(F)(F)F (stereo unspecified)
 : i | 0.5
O=C(Nc1c(-c2ccc3c(c2)OCO3)[nH][nH]c1=O)c1ccc2c(c1)OCO2
 : i | 1.5

Three entries out of the list, ordered by SMILES length, rising:
Sequence of screens: FGF22 binding | HNF4A DNA FP
O=c1c(-c2ccco2)nc2ccccc2n1C(c1ccccc1)c1nc2ccccc2[nH]1 (stereo unspecified)
 : i | 18
O=C(Nc1c(-c2ccc3c(c2)OCO3)[nH][nH]c1=O)c1ccc2c(c1)OCO2
 : i | 1.5
COc1ccc(CCN2C(=O)COc3ccccc3C2C(=O)Nc2ccc3c(c2)OCCO3)cc1OC (stereo unspecified)
 : i | 0.6

Following part
Sequence of screens: FGF22 binding | HNF4A DNA FP
COC(=O)c1ccc2nc(-c3ccc(Cl)cc3)c(Cc3cccc(Cl)c3)n2c1
 : i | 5.7
CC(C)Nc1nc(Nc2ccc(C#N)cc2)c2sccc2n1
 : i | -2.1
CCOC(=O)/C=C/c1cc(F)ccc1O
 : i | -2.7
COC(=O)c1ccc(N2C(c3cc(OC)cc(OC)c3)=Cc3ccc(-c4cnc(OC)nc4)cc3C2CC(=O)C2CC2)cc1 (stereo unspecified)
 : i | -4.0
COc1ccc(CN2C(=O)CCC2(C)c2nnnn2-c2c(C)cccc2C)cc1 (stereo unspecified)
 : i | 0.3
CCCCN1C(=O)C(=O)NC[C@H]1Cc1cccc2ccccc12
 : i | 2.5
COc1ccc(NC(=S)N2CCC3CC2c2cc(-c4ccc5c(c4)OCO5)ccc23)c(OC)c1 (stereo unspecified)
 : i | 1.5
CCCCNC(=O)c1nc(-c2cccnc2OC)oc1-c1ccc(Cl)cc1
 : i | 1.7
Cn1cnc(S(=O)(=O)N2CCCCC2c2cc(C(=O)Nc3cccc(C#N)c3)no2)c1 (stereo unspecified)
 : i | 4.0
C[C@H]1COc2cc(N3CC[C@H](O)C3)ccc2S(=O)(=O)N1
 : i | -1.4
CCCCNc1c(CC(C)C)nc2nc(C)cc(C)n12
 : i | -5.2
COc1ccc(-n2nc3c(c2NC(=O)COc2ccccc2OC)CS(=O)(=O)C3)cc1
 : i | 2.3
Cn1cnc(S(=O)(=O)N2CCCCC2c2cc(C(=O)Nc3cccc4c3CCCC4)no2)c1 (stereo unspecified)
 : i | 3.4
